Screens from PubChem.
miR-21 FLuc = raises the signal of a miR-21 reporter. Potency, µM (top dose mostly 38.3 µM), for inactives: at the top dose reporter change, positive = more light. HeLa miR-21 FLuc reporter, luciferase, 48 h. 340,000 tested, under 10 active; active = well fitted rising curve with a large enough effect; inconclusive = small, poorly fitted or top-dose-only effect; inactive = no such curve, though single readings can be large or run the other way;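 note: % of control where 0% means no effect; miR-21 action dims this reporter so a rising signal means less miR-21 action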
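HeLa miR-21-FLuc reporter line, endogenous miR-21; 2000 cells/well in DMEM/10% FBS; compound titration up to ~40uM final, 48 h, 37 degree Celsius; luciferase detection reagent, 15 min lysis, CCD luminescence.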
Starred values were filed as active, the others as inactive; u = inconclusive. These rows are one share of the data; count on the stated rates, not on these rows.

The opening 4 entries, ahead of the listing:
SMILES | miR-21 FLuc
Cc1nnc2c3ccccc3nc(Nc3cccc(O)c3)n12 | -1%
Cc1c(CC(=O)N2CCCCC2)c(=O)oc2cc(O)ccc12 | -12%
CCCC(=O)N1c2nc(C(C)C)nn2C2(CCCCC2)[C@@H]2CCCC[C@@H]21 | 0%
CCc1nn(CC(=O)NCCc2ccc(OC)c(OC)c2)c(=O)c2cc3occc3n12 | -6%

The whole of this part, previewed entries included:
SMILES | miR-21 FLuc
Cc1nnc2c3ccccc3nc(Nc3cccc(O)c3)n12 | -1%
Cc1c(CC(=O)N2CCCCC2)c(=O)oc2cc(O)ccc12 | -12%
CCCC(=O)N1c2nc(C(C)C)nn2C2(CCCCC2)[C@@H]2CCCC[C@@H]21 | 0%
CCc1nn(CC(=O)NCCc2ccc(OC)c(OC)c2)c(=O)c2cc3occc3n12 | -6%
Cc1nnc(NC(=O)c2nc(SCc3ccccc3F)ncc2Cl)s1 | 0%
Cc1nc(-c2ccc(F)cc2)sc1CCNC(=O)c1cccs1 | -1%
Oc1c(C(c2ccccc2)N2CCCC2)sc2nc(-c3ccco3)nn12 (centres undefined) | 0%
O=C(Nc1ccc(OC(F)(F)F)cc1)c1noc2c1CCCC2 | -59%
CCC1=NN2C(=N)/C(=C\c3ccc(OCCOc4ccccc4)c(OC)c3)C(=O)N=C2S1 | -10%
Cc1ccc2nc3sc(C(=O)Nc4ccc(F)cc4)cc3cc2c1 | -16%
CC12CN3CC(C)(CN(C1)C3c1ccc(OCc3ccccc3)cc1)C2=O (centres undefined) | -1%
COc1ccc(NC(=O)c2oc3ccccc3c2NC(=O)Cc2cccs2)c(OC)c1 | -6%
COc1ccc(Cl)cc1NC(=O)Cn1c(=O)n(Cc2ccco2)c(=O)c2cccnc21 | 3%
CCC(C(=O)NCc1ccccc1Cl)n1c(=O)c2cccn2c2ccccc21 (centres undefined) | 1%
Cc1cccc(-c2nc3c4ccccc4nc(NCc4ccc(F)cc4)n3n2)c1 | -29%
COC(=O)c1ccc(NC(=O)CC2C(=O)N(c3cccc(C)c3)C(=O)N2Cc2ccco2)cc1 (centres undefined) | 0%
COc1ccc(NC(=O)c2nnn(Cc3ccc(Br)cc3F)c2N)c(OC)c1 | 3%
Cc1nc2nc(NCc3ccccc3Cl)[nH]n2c(=O)c1Cc1ccccc1 | -6%
CCOc1ccc(C(=O)Nc2onc3c2CCCC3)cc1 | u
O=C(CCCCn1c(=O)c2ccccc2n(Cc2cccc(F)c2)c1=O)NCCc1ccccc1 | -6%
COc1ccc(OCCn2c(C(C)Oc3ccccc3)nc3ccccc32)cc1 (centres undefined) | 7%
CC(=O)c1ccc(NS(=O)(=O)c2c(C)nc3scc(C)n3c2=O)cc1 | -3%
Cc1ccc(S(=O)(=O)Nc2nc3n(n2)C(c2ccc(Cl)cc2)C=C(c2ccccc2)N3)cc1 (centres undefined) | u
O=C(NCCc1ccc(Cl)cc1)c1ccc2nc(Cc3ccccc3)oc2c1 | 2%
Cc1ccc(C)c(NC(=O)CN2C(=O)CCc3ccccc32)c1 | -2%
COc1ccc(NS(=O)(=O)c2ccc3c(c2)CC(C)N3C(C)=O)c(OC)c1 (centres undefined) | 9%
COc1ccc(NC(=O)CCCSc2nc(-c3ccco3)cc(C(F)(F)F)n2)cc1 | -2%
COc1ccccc1CNC(=O)C1CCN(c2nnc(C)c3c(C)n(-c4ccccc4)nc23)CC1 | -25%
CC(C)Cn1c(=O)c2sccc2n2c(CCCC(=O)NCCc3ccc(Cl)cc3)nnc12 | 0%
CCCCNc1nc2c(S(=O)(=O)c3ccc(Cl)cc3)nnn2c2ccsc12 | -12%
Cc1ccc(C2C=C(c3ccc(Cl)cc3)Nc3nc(NC(=O)c4ccco4)nn32)cc1 (centres undefined) | 28%
CCSC1=NC2(CCN(C(=O)NC3CCCCC3)CC2)N=C1c1ccc(OC)cc1 | 29%
COc1ccccc1NC(=O)c1sc2nc(C)c(C(=O)Nc3ccc(C)cc3C)c(-c3ccc(Br)cc3)c2c1N | -12%
O=C(Cn1nnc(-c2ccc(C(F)(F)F)cc2)n1)NCCc1ccccc1 | 3%
CC(C)Oc1ccc(CNC(=O)CCCn2c(=O)c3cccn3c3cccnc32)cc1 | 9%
CC(=O)c1ccc(NC(=O)CN(C)S(=O)(=O)c2cc3c(cc2Cl)NC(=O)CO3)cc1 | 12%
COc1cccc(CCNC(=O)c2c(O)nc3ccccn3c2=O)c1 | -34%
CCCCn1c(=O)c2oc3ccccc3c2n(CC(=O)Nc2cc(C)ccc2C)c1=O | -2%
Cc1ccc(N(CC(=O)Nc2ccc(C)c(Cl)c2)S(=O)(=O)c2cccs2)cc1 | -4%
Cc1ccc(NC(=O)c2c(C)nc3sc(C(=O)Nc4ccc(F)cc4)c(N)c3c2-c2ccc(C)o2)c(C)c1 | 1%
O=S(=O)(Nc1ccc(-c2ccc(N3CCCC3)nn2)cc1)c1ccccc1Cl | -23%
CC(C)CN1CCc2nc(Nc3ccc(F)cc3F)ncc2C1 | -60%
CCCCOC(=O)c1ccc(NC(=O)c2cc(-c3cccs3)on2)cc1 | -18%
CCOc1ccc(Br)cc1S(=O)(=O)Nc1cccc(-c2ccc(OC)nn2)c1 | 2%
C=Cc1ccc(Cn2ccn(-c3ccc(F)c(F)c3)c(=O)c2=O)cc1 | u
Cc1cccc(-c2nc3nc(C)cc(N4CCN(c5ccccc5)CC4)n3n2)c1 | -4%
O=C(CC(c1cccs1)N1Cc2ccccc2C1=O)Nc1ccccc1 (centres undefined) | 8%
CCc1ccc(-n2c(=O)c3cccnc3n2CC(=O)NCc2ccc(C)cc2)cc1 | -10%
O=C(Nc1nnc2n1CCS2)c1ccccc1C(F)(F)F | -2%
Cc1ccc(Cl)cc1NC(=O)C(C)n1nnc2sc3c(c2c1=O)CCCC3 (centres undefined) | 5%
CCOc1ccc(-c2nonc2NC(=O)c2oc3cc(C)ccc3c2C)cc1 | 28%
Cc1cc(C)c(S(=O)(=O)Nc2cccc(-c3cn4ccccc4n3)c2)c(C)c1 | -5%
Cc1cc(C)cc(-n2c(SCC(=O)NCC3CCCO3)nc3c([nH]c4ccccc43)c2=O)c1 (centres undefined) | -1%
CSc1nc(C)cc(Nc2c(C)cc(C)cc2C)n1 | 11%
Fc1ccccc1Cc1cn2cc(-c3ccc(Cl)cc3)nc2s1 | -32%
CCOC(=O)N1CCc2c(sc(NCc3cccc(F)c3)c2C(=O)Nc2ccc(OC)cc2OC)C1 | u
CCN1C(=O)c2ccccc2S(=O)(=O)c2ccc(C(=O)NCc3ccc(OC)cc3)cc21 | 1%
COc1ccc(CN(C(=O)Nc2ccccc2)c2ccccn2)cc1OC | -18%
COc1ccc(CNC(=O)Cn2c(=O)n3nc(-c4cccc(F)c4)nc3c3ccccc32)cc1OC | 0%
CCOC(=O)c1ccc(NC(=O)Cn2cnc3sc(C(=O)OCC)c(C)c3c2=O)cc1 | -8%
(cont.)
SMILES | miR-21 FLuc
CC(=O)OCc1cc(=O)n2nc(C3CCCCC3)sc2n1 | -16%
Cc1ccc(NC(=O)C2=CC(c3ccc4c(c3)OCO4)=NS(=O)(=O)N2C)cc1 | 1%
COc1ccc(-n2nc(C(=O)N3CCN(c4cccc(C(F)(F)F)c4)CC3)c3c4ccccc4n(C)c3c2=O)cc1Cl | -28%
Cc1ccc(-c2nc(CCNC(=O)C(=O)Nc3c(C)cccc3C)cs2)cc1 | -3%
Cc1ccc(-n2c(C)nc3c(cnn3-c3ccccc3)c2=O)cc1 | 0%
Cc1cc(C)cc(NC(=O)Cn2cc(C(=O)c3cccs3)c3ccccc32)c1 | 30%
O=C(NCC(c1cccnc1)N1CCc2ccccc2C1)C(=O)Nc1ccccc1 (centres undefined) | -15%
COc1ccc(CCNc2nc(-c3ccc(F)cc3)cc(C(F)(F)F)n2)cc1OC | 0%
Cc1ccc(Nc2sc(C(=O)c3ccccc3)c(N)c2C(N)=O)cc1 | u
Cc1ccc(N2CCN(C(=O)CCc3c(C)nc4ncnn4c3C)CC2)c(C)c1 | 3%
CCCNC(=O)CSc1nc2nc(C)c(Cc3ccccc3Cl)c(C)n2n1 | -6%
CCC(=O)OCc1cnc(C)c2oc(=O)c(C(=O)Nc3ccccc3C(F)(F)F)cc12 | 3%
Cc1ccc(NC(=O)CC2Sc3ccccc3NC2=O)c(Br)c1 (centres undefined) | -7%
CCc1ccc(NC(=O)c2ccc(CN3C(=O)C(C)=C(c4ccc(C)cc4)S3(=O)=O)cc2)cc1 | -4%
CCN(CC)c1ccc(NS(=O)(=O)c2cc(-c3onc(C)c3C)ccc2OC)c(C)c1 | 9%
COc1ccc(-c2ccc3c(N)c(C(=O)NCc4ccc(C)cc4)sc3n2)cc1 | 1%
Cc1cccc(C)c1OCC(=O)Nc1nc(-c2ccc(Br)cc2)ns1 | -19%
Cc1cccc(-c2nc3c(cnn3-c3ccccc3)c(=O)n2-c2cccc(Cl)c2)c1 | -16%
CCOC(=O)c1sc2cccc(F)c2c1S(=O)(=O)NCc1ccccc1Cl | -2%
CNS(=O)(=O)c1cc(-c2nn3c(C)nnc3c3ccccc23)ccc1C | -9%
Cc1ccc(C)n1-c1nnc(N2CCCC(C(=O)Nc3ccc(C(C)C)cc3)C2)s1 (centres undefined) | 6%
Cc1cccc(N2CCN(C(=O)Nc3cn(CC(C)C)c(=O)c4ccccc34)CC2)c1C | -2%
O=c1[nH]c2ccc(NCc3ccc(-c4cccc(Cl)c4)o3)cc2[nH]1 | 8%
CN(C)c1ccc(CNS(=O)(=O)c2ccc(-c3cc(C(F)(F)F)on3)s2)cc1 | 4%
Cc1nc(N2CCCC2)c2c(C(=O)N3CCN(c4cc(Cl)ccc4C)CC3)c(C)oc2n1 | u
COc1ccc(NC(=O)C2CCN(c3nc(-c4ccc(OC)c(OC)c4)no3)CC2)cc1Cl | -18%
Cc1c(Cl)cccc1NC(=O)c1ccc2nc(C(C)C)oc2c1 | -47%
Cc1oc2ncn(C)c(=O)c2c1C(=O)NCCCN(Cc1ccccc1)C(C)C | -1%
CSC1=NC2(CCN(C(=O)NC3CCCCC3)CC2)N=C1c1ccc(C)cc1 | 3%
Cc1cc(C)nc(NS(=O)(=O)c2ccc(NC(=O)c3cc(=O)c4ccc(C)c(C)c4o3)cc2)n1 | -38%
CCOc1ccc(CCNC(=O)c2nnc(Cc3cc(OC)c(OC)c(OC)c3)o2)cc1OCC | 0%
COc1cc(N2C(=O)CSC23C(=O)N(Cc2ccc(C)cc2)c2ccccc23)cc(OC)c1OC (centres undefined) | 5%
CC(C)c1ccc(NC(=O)CN2C(=O)COc3ccc(S(=O)(=O)N4CCCCCC4)cc32)cc1 | 13%
COc1ccc(NC(=O)CSc2nc3nc(C)cc(C)n3n2)cc1OC | -7%
Cc1ccc(NS(=O)(=O)c2c(C)nc3sc(C)cn3c2=O)c(C)c1 | -2%
CN(C(=O)CSc1nnc(-c2ccc([N+](=O)[O-])cc2)o1)c1ccccc1 | -13%
CCOC(=O)c1c(C)sc(-c2c(-c3ccc4c(c3)OCCO4)[nH]c3c2c(=O)[nH]c(=O)n3C)c1O | u
CCOC(=O)N1CCN(c2ncc3c(n2)CC(c2ccc(Cl)cc2)CC3=O)CC1 (centres undefined) | 0%
O=C(NC1CC1)c1ccc(Cn2c(SCc3ccccc3F)nc3cccnc32)cc1 | u
COc1cccc(NC(=O)CSc2nccn2Cc2ccc3c(c2)OCO3)c1 | -4%

5 entries from above in a different format.
SMILES	miR-21 FLuc
CC12CN3CC(C)(CN(C1)C3c1ccc(OCc3ccccc3)cc1)C2=O (centres undefined)	-1%
COc1ccc(NC(=O)c2oc3ccccc3c2NC(=O)Cc2cccs2)c(OC)c1	-6%
COc1ccc(Cl)cc1NC(=O)Cn1c(=O)n(Cc2ccco2)c(=O)c2cccnc21	3%
CCC(C(=O)NCc1ccccc1Cl)n1c(=O)c2cccn2c2ccccc21 (centres undefined)	1%
Cc1cccc(-c2nc3c4ccccc4nc(NCc4ccc(F)cc4)n3n2)c1	-29%

Laid out differently: two of the compounds above
O=c1[nH]c2ccc(NCc3ccc(-c4cccc(Cl)c4)o3)cc2[nH]1
  miR-21 FLuc: 8%
CN(C)c1ccc(CNS(=O)(=O)c2ccc(-c3cc(C(F)(F)F)on3)s2)cc1
  miR-21 FLuc: 4%

Following part
SMILES | miR-21 FLuc
Cc1ccc(Cn2ccnc2SCC(=O)NCc2ccccc2Cl)cc1 | 3%
Cc1c(CCC(=O)N2CCCCC2)c(=O)oc2cc3occ(C(C)(C)C)c3cc12 | -1%
O=C(/C=C/c1ccccc1Cl)N1CCC(c2nc3ccccc3o2)CC1 | -37%
Cc1cc(C)cc(NC(=O)CSc2nc(=O)n(CCN3CCOCC3)c3c2CCC3)c1 | -2%
O=C(CCS(=O)(=O)c1ccc(Br)cc1)Nc1ccc(Cl)c(C(F)(F)F)c1 | u
COc1ccc(OC)c(N(C)S(=O)(=O)c2ccc3c(c2)NC(=O)CC(=O)N3)c1 | 9%
Cc1ccccc1C(=O)N1c2ncnn2C2(CCCCC2)[C@@H]2CCCC[C@@H]21 | 5%
Cc1ccc2nc(-c3ccc(C)s3)c(Nc3ccc4c(c3)OCCO4)n2c1 | -57%
CCOc1ccc(Nc2nc(C)c(NC(=O)c3cccc(F)c3)c(Nc3ccc(OCC)cc3)n2)cc1 | 1%
CCCCN(CC)CCNC(=O)c1c(C)oc2ncnc(N3CCOCC3)c12 | 0%
COCCNC(=O)c1c(NC(=O)c2cc(=O)c3cc(C)cc(C)c3o2)sc2c1CCCC2 | 0%
CC(=O)N1CCCc2cc(S(=O)(=O)N3CCN(c4cccc(C(F)(F)F)c4)CC3)ccc21 | u
